High-throughput results deposited in PubChem by National Center for Advancing Translational Sciences (NCATS).
Vaccinia Venus: qHTS for Stage-Specific Inhibitors of Vaccinia Orthopoxvirus: Venus Reporter Primary qHTS | Vaccinia virus Venus reporter expression, fluorescence | 0.46% of 330,000 active | Potency, µM (titrated, usually from 36.5 µM), for the others: at the top dose activity change, negative = inhibition, usual class: inhibitors; active means well fitted inhibition curve with a large enough effect; inconclusive means small, poorly fitted or top-dose-only effect; inactive means no such curve, though single readings can be large or run the other way; tested in A549 cells; note: nearly all actives have a fitted effect of over 30% in size; inactives centre near -10
Vaccinia mCherry: qHTS for Stage-Specific Inhibitors of Vaccinia Orthopoxvirus: mCherry Reporter Primary qHTS; Vaccinia virus mCherry reporter infection, fluorescence; about a quarter of the inactives have no number; Potency, µM (top dose mostly 36.5 µM), inactives show top-dose activity change, negative = inhibition, hits mostly inhibitors; 0.63% of 310,000 active; AID 720579, 2013; active = well fitted inhibition curve with a large enough effect; inconclusive = small, poorly fitted or top-dose-only effect; inactive = no such curve, though single readings can be large or run the other way; tested in A549 cells; note: nearly all actives have a fitted effect of over 35% in size; inactives centre near -10
Starred values were filed as active, the others as inactive; i = inactive; u = inconclusive; x = not tested or not shown; & = joins results of further samples; [ ] = remark or other dose. % is set by controls: 0 for no effect and ±100 for the full control effect; potency is the fitted concentration of half-maximal effect.

SMILES | Vaccinia Venus | Vaccinia mCherry
CC1CN(C(=O)COC(=O)c2ccccc2O)CC(C)O1 (centres undefined) | 4% | 0%
COc1ccc(CCNC(=O)CC2Oc3ccc(Cl)cc3NC2=O)cc1OC (centres undefined) | -19% | -16%
CCN1CCN(c2ccc(N)c(C)c2)CC1 | -8% | -7%
CCN(C(=O)c1cn(C)c(=O)c2cc(OC)c(OC)cc12)c1cc(OC)ccc1OC | -15% | i
COc1ccc(CC(=O)Nc2ccc(S(=O)(=O)N3CCOCC3)cc2)cc1 | -13% | -5%
O=[N+]([O-])c1ccc(N2CCN(C(=S)Nc3ccc(F)cc3)CC2)cc1 | -10% | -25%
Cc1c(C(=O)NC2CCCC2)sc2ncnc(NCCN(C)C)c12 | -4% | -7%
Cc1ccsc1/C=N/Nc1ncc(Cl)cc1Cl | u | x
COc1cc(/C=C/C(=O)OCC(=O)NC(=O)NC2CCCCC2C)ccc1OC(F)F (centres undefined) | -10% | -11%
CC(=O)C1=C(C)NC(C)=C(C(C)=O)C1c1cccs1 | -1% | x
Cc1cccc(NC(=O)CN(C)S(=O)(=O)c2cnc[nH]2)c1 | -1% | x
Cc1ccc(NC(=O)CCCn2c(=O)c3cccn3c3cccnc32)cc1C | -13% | -21%
Cc1ccc(NC(=O)C(OC(=O)c2ccccc2Cl)c2ccccc2)cc1Cl (centres undefined) | -13% | -24%
O=[N+]([O-])c1ccccc1/C=N/NC1=NS(=O)(=O)c2ccccc21 | -9% | i
COC(=O)c1ccccc1NC(=S)N(Cc1ccc2c(c1)OCO2)Cc1cc2cc(OC)ccc2[nH]c1=O | -8% | -18%
CCOP(=O)(NC(c1ccccc1)c1nc2ccccc2[nH]c1=O)OCC (centres undefined) | -19% | i
CN(Cc1ccco1)C(=O)c1cccc(S(=O)(=O)N2CCN(Cc3ccccc3)CC2)c1 | -5% | i
CC(O)CN(C)CC/C=C1/c2ccccc2CSc2ccccc21 (centres undefined) | -16% | i
Cc1c(C(=O)NCc2cccc(Cl)c2)sc(=O)n1Cc1cccc(F)c1 | -12% | -8%
Cc1ccc(S(=O)(=O)c2nnn3c2nc(NCc2ccccc2Cl)c2sccc23)cc1 | u | u
Cc1ccc(S(=O)(=O)NCCc2sc3nc(-c4ccccc4)nn3c2C)cc1C | u | -9%
O=C1c2ccccc2C(Nc2ccccc2)N1c1ccc(Cl)cn1 (centres undefined) | -5% | i
CCOc1ccc(NS(=O)(=O)c2ccc3[nH]c4c(c3c2)CCCCC4)cc1 | -21% | -4%
Cc1nn(C)c(Cl)c1CN1CCN(CC(C)C)C(CCO)C1 (centres undefined) | -6% | i
Cc1ccc(CCNC(=O)CCn2nc(-c3ccc(C)cc3)ccc2=O)cc1 | -9% | -23%
Cc1sc(NC(=S)NC(=O)C2CCCCC2)c(C(N)=O)c1C | u | -4%
CCOc1ccc(CC(=O)Nc2c(C(N)=O)oc3ccc(Br)cc23)cc1OCC | -14% | -10%
CCCN(CCC)CC(=O)N1CC(=O)Nc2ccccc21 | -18% | -11%
COc1ccc2[nH]c(C)c(CN3CCCCC3)c(=O)c2c1 | 7% | -2%
O=C(Oc1ccc(Br)cc1)C1CC(=O)N(c2ccc(F)cc2)C1 (centres undefined) | -1% | -1%
CC1(c2nnnn2-c2ccc3c(c2)OCCO3)CCC(=O)N1CCCn1ccnc1 (centres undefined) | 11% | 8%
Cc1ccc(CNCC2CCCO2)s1 (centres undefined) | -2% | -15%
COc1ccccc1NC(=O)N1CCCC(c2nc3c(nnn3Cc3ccc(C)cc3)c(=O)[nH]2)C1 (centres undefined) | -16% | -26%
Cc1ccc(C(=O)NCC(=O)OCC(=O)NCC(F)(F)F)cc1 | 2% | -6%
CC(=O)N1CCN(c2ccc(NC(=O)c3ccc(C)c([N+](=O)[O-])c3)cc2)CC1 | -6% | -1%
COc1ccc(CNc2ccncc2)c(OC)c1OC | -15% | i
C=CCN(CC=C)CCOc1cccc2ccccc12 | -8% | -20%
O=C(c1ccco1)N1CCN(C2CC(=O)N(c3ccc(C(F)(F)F)cc3)C2=O)CC1 (centres undefined) | -12% | i
CCOC(=O)Cc1nnc(NC(=O)C(CC)Sc2nc(C)cc(C)n2)s1 (centres undefined) | -8% | i
CCOc1ccccc1C(=O)Nc1cc(OC)ccc1OC | -15% | -5%

Individual results from above.
CC(=O)N1CCN(c2ccc(NC(=O)c3ccc(C)c([N+](=O)[O-])c3)cc2)CC1 | Vaccinia mCherry: -1%
Cc1ccc(C(=O)NCC(=O)OCC(=O)NCC(F)(F)F)cc1 | Vaccinia mCherry: -6%
COc1ccc(CNc2ccncc2)c(OC)c1OC | Vaccinia Venus: -15%
O=C(c1ccco1)N1CCN(C2CC(=O)N(c3ccc(C(F)(F)F)cc3)C2=O)CC1 (centres undefined) | Vaccinia Venus: -12%

Further results follow.
SMILES | Vaccinia Venus | Vaccinia mCherry
Cc1cc(C)n(CCNC(=O)C2CCC(=O)N(Cc3ccc(Cl)cc3)C2)n1 (centres undefined) | -6% | i
COc1cccc2c1SCc1ccccc1C2CC(N)=O (centres undefined) | 10% | 2%
COc1cc(NS(=O)(=O)c2cc3c(cc2C)N(C)CCO3)cc(OC)c1OC | -14% | -14%
CCCCn1c(CNC(=O)C23CC4CC(CC(C4)C2)C3)nnc1SCC(=O)Nc1nnc(C)s1 | -3% | -12%
Cc1ccc(C(=O)NCC(=O)OCC(=O)Nc2ccc(Cl)cc2C(F)(F)F)cc1C | 1% | -18%
Cc1ccc(N2CC(=O)N(c3ccc(C)cc3)CC2=O)cc1 | -19% | -12%
N#Cc1nc(Cc2ccccc2)oc1N1CCC(Cc2ccccc2)CC1 | -12% | x
Cc1cccc(C(=O)NCC(=O)N2CCN(S(=O)(=O)/C=C/c3ccccc3)CC2)c1 | -21% | i
COc1cc(NC(=O)c2ccccc2)c(OC)cc1NC(=O)CN1CCN(c2ccccn2)CC1 | -2% | x
COc1cc(S(=O)(=O)N(Cc2ccc(C)cc2)Cc2ccco2)ccc1-n1cnnn1 | -14% | -18%
COc1cc(CN2C(=S)NC(C)(C)CC2(C)O)cc(OC)c1 (centres undefined) | -2% | i
Cc1ccc(S(=O)(=O)N(C)c2ccc(OC(=O)CN3C(=O)NC4(CCCC4)C3=O)cc2)cc1 | -6% | 0%
N/C(Cc1ccc([N+](=O)[O-])cc1)=N\OC(=O)COc1ccc2ccccc2c1 | -7% | i
CCS(=O)(=O)CCSc1nc(C)cc(C)n1 | -11% | x
COc1ccc(-c2c(Sc3ccccc3)c3cc(-c4ccc(OC)c(F)c4)ccc3n2C)cc1 | 9% | 15%
CC(C)[C@H](NC(=O)OCc1ccccc1)C(=O)OCC(=O)Nc1c(F)cccc1F | 2% | -1%
CCOc1ccc(Nc2nc(N)c(C(=O)c3ccccc3Cl)s2)cc1 | -22%[7.34 µM] | -25%[7.34 µM]
Cc1cc(OCC(=O)OCC(=O)c2ccc[nH]2)ccc1Cl | -21% | -14%
Cc1cnc(-n2ncc(C(=O)NCC3COCCO3)c2C2CC2)nc1-c1cccs1 (centres undefined) | -8% | -18%
O=C(Nc1ccc(Cl)cc1)N1CCC(CO)(Cc2ccccc2)CC1 | -22% | -10%
Cc1ccc([N+](=O)[O-])cc1NC(=O)CN1CCCCC1 | -6% | -14%
COCCCNC(=O)C(=O)N/N=C/c1ccc(OCC(=O)Nc2cccc(Cl)c2C)c(OC)c1 | u | x
O=C(c1ccccc1-n1cccn1)N1CCOc2ccc(CN3CCOCC3)cc2C1 | 14% | -1%
NS(=O)(=O)c1ccc(CCNC(=O)Cn2c(-c3cccs3)cc3ccccc32)cc1 | -2% | -4%
O=S(=O)(Nc1ccccc1N1CCCCC1)c1cccs1 | -17%[7.34 µM] | -15%[7.34 µM]
CCOC(=O)CC(SP1(=S)OCC2(CCCCO2)C(C2CCCCO2)O1)C(=O)OCC (centres undefined) | -11% | -4%
CCCCNC(=O)N1CCc2ccccc2C1 | 4% | -6%
Cc1cc(/C=C(\C#N)C(=O)NC2CCCCCC2)c(C)[nH]1 | -9% | -1%
COc1ccc(C(=O)CSc2nnc(-c3cc4ccccc4cc3O)n2Cc2ccco2)cc1 | -16% | -22%
CCOc1ccccc1OCCN1CCC(Cc2ccccc2)CC1 | -13% | -15%
COc1ccc(-c2cc(C(=O)OCC(=O)N3CCCCC3)c3ccccc3n2)cc1OC | -20% | i
CCOC(=O)C1=C(CSc2nc3ccccc3s2)NC(=O)NC1c1cc(C)ccc1C (centres undefined) | -24% | -16%
Cc1nn(-c2ccccc2)c2sc(C(=O)NC3CCCCC3)cc12 | -16% | i
O=C(COCc1cc(-c2cccs2)on1)Nc1cccc(O)c1 | -7% | -10%
CCn1nc(C)c(CCN(C)C(=O)Nc2cc(Cl)c(OC)cc2OC)c1C | -3% | -13%
Cc1ccc([C@H]2C[C@@H](O)[C@H](n3cc(-c4ccc(F)cc4)nn3)CN2C(=O)c2cccs2)cc1 | -20% | -10%
Cc1ccc(/C(O)=C2/C(=O)C(=O)N(CCCn3ccnc3)C2c2cccnc2)cc1 (centres undefined) | 4% | i
CC(C)(C)c1ccc(S(=O)(=O)Nc2cccc(C3OCCCO3)c2)cc1 | -14% | -25%
CCOC(=O)C1CNc2cc(S(=O)(=O)CC)ccc2O1 (centres undefined) | -3% | -13%
Cc1ccc(NC(=O)C2CCC(N3C(=O)C4CCCCC4C3=O)CC2)cc1 (centres undefined) | 0% | 6%
Cc1ccc(S(=O)(=O)NCCC(=O)NCCN2CCCCCC2)cc1 | -1% | i
CCOc1ccc2nc(CN3CCN(Cc4ccccc4OCC)C(CCO)C3)ccc2c1 (centres undefined) | -20% | -15%
CCCCn1c(NC(=O)C2CCCCC2)nc2ccccc21 | u | x
Cc1c(C)c2cc(Cl)c(OCC(=O)Nc3ccccn3)cc2oc1=O | -4% | -6%
O=C(COC(=O)CCNS(=O)(=O)c1ccccc1)NNC(=O)c1ccccc1 | 2% | i
NC1=NC2(CCCCC2)N=C(Nc2ccc(Br)cc2)N1 | -11% | -1%
CCc1cccc(CC)c1NC(=O)C(NS(=O)(=O)c1cccs1)c1ccccc1 (centres undefined) | 4% | -13%
CCn1c2ccccc2c2cc(NC(=S)N3CCOCC3)ccc21 | -19% | -28%

One compound at a time, as listed above.
Listed for CCc1cccc(CC)c1NC(=O)C(NS(=O)(=O)c1cccs1)c1ccccc1 (centres undefined) : Vaccinia Venus = 4%; Vaccinia mCherry = -13%
Listed for O=C(COC(=O)CCNS(=O)(=O)c1ccccc1)NNC(=O)c1ccccc1 : Vaccinia Venus = 2%; Vaccinia mCherry = i

Next part:
SMILES | Vaccinia Venus | Vaccinia mCherry
Cc1nccn1-c1ccc(NC(=O)[C@H]2O[C@@H](n3cnc4c(N)ncnc43)[C@H](O)[C@@H]2O)cc1 | 6% | 13%
CCN1CCN(CCCN(Cc2ccco2)C(=S)Nc2ccc(Cl)c(C)c2)CC1 | -23% | -17%
CN(C)C1=NCCN1CC1CCCC1 | -8% | i
COc1cc(OC)c(NC2=NCCCCC2)cc1Cl | 0% | -9%
COc1ccc(CCNC(=O)CC(=O)NCCc2ccc(OC)cc2)cc1 | 4% | -9%
CSc1ccccc1C(=O)C1CCCN(Cc2cccc(C)n2)C1 (centres undefined) | -10% | -21%
COc1ccc(NC(=O)c2ccccn2)cc1 | -12% | x
CCOc1ccc(N(CC)C(=O)c2cc3c(s2)-c2ccccc2OC3)cc1 | -8% | -10%
O=C(CN1C(=O)COc2ccc(S(=O)(=O)N3CCCCCC3)cc21)NCc1ccc(F)cc1 | -9%&-7% | -7%&-16%
O=c1[nH]c(=S)n(C2CC2)c(O)c1C=NCCN1CCOCC1 | -16% | -8%
Cc1cccc(C(=O)NCC(=O)OCc2cc(=O)n3nc(C4CC4)sc3n2)c1 | -8% | -4%
Cc1ccsc1C(=O)N1CCC1(C)C(=O)NCCC#N (centres undefined) | -12% | i
COc1ccccc1-n1nc(C)cc1N | -1% | i
COc1ccc(Cl)cc1Cn1c(C)c(C(=O)NCc2ccc(F)cc2)sc1=O | 1% | i
Cc1c(C#N)c2ncn(Cc3ccccn3)c(=O)c2n1-c1ccccc1 | -14% | i
NS(=O)(=O)c1ccc(NC(=O)c2cc(Cl)ccc2Cl)cc1 | -18% | -3%
CCOc1ccc(NS(=O)(=O)c2ccc(C(=O)N3CCN(c4ncccn4)CC3)cc2)cc1 | 1% | i
COc1ccc(N(CCC#N)C(=O)/C(C#N)=C\c2cccs2)cc1 | -9% | -12%
COc1ccc(-c2nc(SCC(=O)Nc3ccc4c(c3)OCCO4)c(-c3ccc(C)cc3)[nH]2)cc1OC | -29% | -25%
Cn1c(N)nc(N)c(NC=O)c1=O | 5% | 9%
CCOC(=O)c1c(NC(=O)Cc2cccs2)sc(C(=O)NC2CCCC2)c1C | -9% | -6%
CC(C)OCCCNC(=O)c1ccc2c(c1)N(Cc1c(F)cccc1Cl)C(=O)c1ccccc1S2 | -27% | -18%
CCN(CC)CCNC(=O)c1ccc(-n2c(-c3ccccc3)cc3c2CCCC3)cc1 | -14% | -17%
CC(C)NC(=O)C1CCN(C(=O)N2CCOc3ccc(Cl)cc32)CC1 | -8% | 4%
COc1ccc(NC(=O)Nc2ccc3c(c2)C(=O)N([C@H](C)CO)C[C@H](C)[C@@H](CN(C)C(=O)Nc2ccc4c(c2)OCO4)O3)cc1 | -24% | i
O=C(NCc1ccc(Cl)cc1)C1CCN(c2nnc(N3CCCC3=O)s2)CC1 | 2% | -10%
COc1cccc(S(=O)(=O)NCc2ccc(C(=O)Nc3ccc(C)cc3)cc2)c1 | -24% | x
